Screening data from PubChem.
VDR inh – Inhibitors of the vitamin D receptor (VDR): qHTS; actives 0.93% (n = 400,000); Potency, µM, inactives show max response, negative = inhibition, usual class: inhibitors; Vitamin D3 receptor (Homo sapiens), P11473; VDR-SRC2-3 peptide fluorescence polarization, 2 h; AID 504847, 2011; active = well fitted inhibition curve with a large enough effect; inconclusive = small, poorly fitted or top-dose-only effect, or another doubt; inactive = no such curve, though single readings can be large or run the other way; also: series mostly up to about 120 µM
Target sequence (P11473 whole entry, looked up): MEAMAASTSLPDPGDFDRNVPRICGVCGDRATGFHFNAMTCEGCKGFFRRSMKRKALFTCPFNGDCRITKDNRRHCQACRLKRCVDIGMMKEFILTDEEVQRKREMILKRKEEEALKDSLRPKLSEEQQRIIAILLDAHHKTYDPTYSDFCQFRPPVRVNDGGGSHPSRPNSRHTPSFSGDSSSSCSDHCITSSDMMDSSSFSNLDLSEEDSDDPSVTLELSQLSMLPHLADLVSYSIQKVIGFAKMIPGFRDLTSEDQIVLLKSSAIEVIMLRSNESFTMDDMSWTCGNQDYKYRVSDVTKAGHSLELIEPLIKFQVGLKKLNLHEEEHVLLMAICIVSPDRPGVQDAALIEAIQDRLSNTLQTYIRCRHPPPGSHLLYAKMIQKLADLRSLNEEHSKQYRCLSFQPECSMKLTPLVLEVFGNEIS
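After 23 nl compound addition and a short centrifugation, plates sat for 2 hours at ambient temperature; polarization of fluorescence then indicated loss of VDR binding to peptide SRC2-3.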
An asterisk follows results filed as active; ? = inconclusive; & = joins results of further samples. % is scaled to controls: 0 for no effect and ±100 for the full control effect; potency is read from the fitted curve at half-maximal effect. A portion of the library; the hit share may differ from the screen's.

Molecule | VDR inh
O=S(=O)(c1ccccc1)[C@@]1(c2ccc(Br)cc2)C[C@@H]2ON=C(c3ccccc3)[C@@H]2C1 | -4%
O=C(Nc1ccccc1N1CCCCC1)c1ncoc1-c1cccc(F)c1 | -15%
CC(=O)N(Cc1ccc(F)cc1)c1cccc(C)c1C | 14%
CCc1cccc(Nc2cc(C)nc3nc(C)nn23)c1 | 1%
c1ccc(Cn2ncc3ccccc32)cc1 | -11%
COc1ccccc1CCNC(=O)C1CCN(c2nnc(C)c3c(C)n(-c4ccc(C)cc4)nc23)CC1 | 9%&-2%
CN1C(=S)SC(/[N+]([O-])=C\c2ccco2)C1(C)C (centres undefined) | -28%
CCC1(CC)C(=O)C2=C3C1[C@H](C(=O)OC)C=C(C(=O)OC)C[C@H]3n1c(=O)n(-c3ccccc3)c(=O)n1[C@H]2C (some centres undefined) | -15%&-24%
COc1ccc(C2/C=C\CNCC(=O)N2Cc2ccc(F)cc2)cc1 (centres undefined) | ?
COc1ccccc1C(C)NC(=O)C1CCN(S(=O)(=O)c2cccs2)CC1 (centres undefined) | 8%
COc1ccc(OC)c(C2=NS(=O)(=O)N(C)C(C(=O)NCc3cccs3)=C2)c1 | ?
CCCOc1ccc(N2C(=O)CC(N(CCc3ccc(OC)cc3)C(=O)c3ccccc3)C2=O)cc1 (centres undefined) | -16%
COc1ccc(-c2ccc(CNc3ccc4[nH]c(=O)[nH]c4c3)o2)cc1Cl | 11%
Cc1cc(C)c(NC(=O)CSc2nc(=O)n(CCN3CCOCC3)c3c2CCCC3)c(C)c1 | 2%
O=C(NCCCc1nc2ccccc2[nH]1)c1ccco1 | 2%
COc1ccc(OC)c(C(=O)c2ccc(C(=O)c3cc(OC)ccc3OC)cc2)c1 | 6%
COc1ccccc1N1CCN(C(=O)c2c(-c3ccccc3Cl)noc2C)CC1 | 4%
Cc1ccc2[nH]c(=O)c(CNS(=O)(=O)c3ccccc3)c(-c3ccccc3)c2c1 | ?
CCOC(=O)C1(Cc2cccc(F)c2)CCN(CC2CC2)CC1 | -9%
CCN(CC)c1ccc(S(=O)(=O)N2CCOCC2)cc1NC(=O)CN1CCc2ccccc2C1 | -5%
C=C(C)C(=O)NNc1ccccc1 | -13%
Cc1cc(C)c2cc(CN(CCO)C(=O)NC3CCCCC3)c(=O)[nH]c2c1 | -14%
CCCN(CCC)C(=O)CSc1nc2ccccc2c(=O)n1CC1COc2ccccc2O1 (centres undefined) | 11%
CCOC(=O)c1cc(-c2nnc(-c3cc(OC)c(OC)c(OC)c3)o2)c(C)nc1C | -21%
COc1ccccc1Nc1ccc(C(=O)O)cc1[N+](=O)[O-] | -2%
CCOc1ccc(NC(=O)CCNS(=O)(=O)c2ccc3c(c2)CCCC(=O)N3)cc1 | 5%
CCOc1ccc2[nH]c(=O)c(CN(Cc3cccs3)C(CC)c3nnnn3C(C)(C)CC)cc2c1 (centres undefined) | -15%
Nc1ccc(C(=O)Nc2cccc(N)c2)cc1 | -19%
CCCCOc1cccc(C(=O)Nc2sc3c(c2C(=O)OCC)CCCC3)c1 | -15%
O=C(CCc1nnc2ccc(NCc3ccco3)nn12)N1CCN(c2ccc(F)cc2)CC1 | -11%
CCOC(=O)Cc1csc(NC(=O)CSc2nccn2C)n1 | -5%
Clc1ccccc1Nc1c2c(nc3ncnn13)CCC2 | 16%
COc1ccc2nc(SC(C)C(=O)NCC(=O)Nc3ccc(F)c(F)c3F)[nH]c2c1 (centres undefined) | -17%
O=C(CC1C(=O)NCCN1Cc1ccc(F)cc1)NCCCn1cccn1 (centres undefined) | -24%
CCOC(=O)N1CCN(c2nc(-c3cccc(OC)c3)cc(C(F)(F)F)n2)CC1 | -26%
O=C1CCN(C(=O)c2ccccc2)C2CCCCC12 (centres undefined) | 14%
O=C(c1cccc(Cl)c1)N(Cc1cccc(F)c1)C1CCS(=O)(=O)C1 (centres undefined) | 8%
CCOc1ccccc1NS(=O)(=O)c1cn(C)nc1C | 11%
Cc1ccc(OCCSc2nc3ccccc3n2CC(=O)N2CCOCC2)c(C)c1 | 13%
CCOC(=O)c1cnc2cc(-c3ccc(C(C)(C)C)cc3)nn2c1N | 20%

Fetched by structure from the list above (2):
Molecule | VDR inh
O=C(c1cccc(Cl)c1)N(Cc1cccc(F)c1)C1CCS(=O)(=O)C1 (centres undefined) | 8%
c1ccc(Cn2ncc3ccccc32)cc1 | -11%

Next part.
Molecule | VDR inh
O=C(NN1CCCCC1)c1ccccc1 | -2%
Cc1nnc2ccc(-c3cccc(NS(C)(=O)=O)c3)nn12 | -5%
CCN(CC)S(=O)(=O)c1ccc2oc(C(=O)NCC3COc4ccccc4O3)c(C)c2c1 (centres undefined) | -9%
O=C(NNC(=O)c1cc(-c2ccncc2)nc2ccccc12)Nc1ccc(F)cc1 | -21%
C/C(=N\NC(=O)CCCC(=O)O)c1c(-c2ccccc2)c2cc(Cl)ccc2[nH]c1=O | -9%
CCN1C(=O)N[C@@H](c2ccccc2)[C@H](C(=O)OC)[C@H]1C | -8%
CCOC(=O)c1c(NC(=O)CSc2nnnn2-c2ccc3c(c2)OCCO3)sc(C)c1C | -6%
c1ccc2c(c1)nc(N1CCOCC1)c1nncn12 | 12%
CSc1nc2ccc(NC(=O)c3c(F)cccc3F)cc2s1 | 2%
O=C(c1cccc2ccccc12)C1CCCN(C(=O)C2CCOCC2)C1 (centres undefined) | -11%
Cc1ccc(N=C(NOC(=O)c2ccccc2)c2nonc2N)c(C)c1 | -9%
COc1ccc(Cn2c(=O)[nH]c3cc(C(=O)NCCCOC(C)C)ccc3c2=O)cc1 | 3%
Cc1occc1C(=O)Nc1cccc(Cl)c1Cl | -10%
COc1ccc(S(=O)(=O)NC2CCCC2)cc1NC(C)=O | -3%
CCOc1ccc(NC(=O)c2cc(S(=O)(=O)N3CCOCC3)cn2C)cc1 | 23%
CC(NC(=O)c1ccc(Br)o1)c1ccccc1 (centres undefined) | -9%
COc1ccc(S(=O)(=O)Nc2ccc(S(=O)(=O)N3CCOCC3)cc2)cc1 | -7%
CC(C)c1ccc(N(CC(=O)NCC2CCCO2)C(=O)Cn2nnc(-c3cccs3)n2)cc1 (centres undefined) | 5%
COC(=O)C1CCN(c2cc(=O)n(C3CCCCC3)c(=O)[nH]2)CC1 | -2%
COc1ccc(-c2csc(NC(=O)c3ccc(N4C(=O)CCC4=O)cc3)n2)cc1 | 18%
Cc1c(-c2ccc(Br)cc2)[n+](=O)c2c(n1[O-])CCCC2 | 9%
Cc1ccc(SC(C)C(=O)Nc2ccccc2C(=O)N2CCOCC2)cc1 (centres undefined) | 6%
COc1ccc(C(=O)NC(C(=O)NCC2CCCO2)C(C)C)cc1 (centres undefined) | -5%
Cc1cc(-c2nnc(-c3cc4ccccc4oc3=O)o2)c(C)n1-c1ccccc1 | 12%
CC(C)=N/N=C(\c1cccc([N+](=O)[O-])c1)C12CN3CN(CN(C3)C1)C2 | 16%
CCOC(=O)Nc1ccc2c(CN3CCN(S(=O)(=O)c4ccc(C(C)C)cc4)CC3)cc(=O)oc2c1 | -17%
CCc1nc2ccccc2[nH]1 | -9%
COc1ccc(NC(=O)C2CC(c3c(F)cccc3Cl)=NO2)cc1OC (centres undefined) | 3%
Cc1cc(C)nc(NS(=O)(=O)c2ccc(NC(=O)CCN3C(=O)c4ccccc4C3=O)cc2)n1 | 5%
Cc1ccc(OCC(=O)NNC(=O)CCc2ccccc2)cc1 | -7%
Cc1cc([N+](=O)[O-])ccc1NC(=O)c1ccc(NC(=O)C(C)C)cc1 | 9%
CC1=C(C)C(=O)N(c2ccccn2)C1=O | -4%
COc1ccc(-n2c(=O)[nH]cc(C(=O)Nc3ccc4c(c3)OCCO4)c2=O)cc1 | -13%
CCOc1ccc2nc(N(Cc3cccnc3)C(=O)c3ccco3)sc2c1 | 7%
CCOc1ccccc1NC(=O)c1sc2nc(C)nc(N3CCOCC3)c2c1C | -15%
CCC(CC)C(=O)Nc1cccc(C(=O)Nc2nccs2)c1 | 17%
Cc1cc(-c2ccccc2)nc(N(C)NC(=O)c2ccc(Cl)cc2)c1S(C)(=O)=O | 14%
O=C(Cn1c(=O)n2ncnc2c2c3c(sc21)CCCC3)c1ccccc1 | 13%
COc1ccc(-n2cc([N+](=O)[O-])c(=O)c3ccc(Cl)cc32)cc1 | 9%
CCCCC(CC)CNC(=O)c1cc2ccccc2c(=O)o1 (centres undefined) | -12%
Cc1cc(C(F)(F)F)nn1CC(=O)N(C)C1CCCCC1 | -4%
COc1ccccc1CNC(=O)C1CCN(S(=O)(=O)c2ccc3[nH]c(=O)ccc3c2)CC1 | 3%
CN(C)CCCN(C(=O)c1sc2ccccc2c1Cl)c1nc2c(F)cccc2s1 | -12%
COc1ccc(OCC(=O)N2CCN(c3cccc(Cl)c3)CC2)cc1 | 1%
O=C(O)CCCCCCCCCCCNC(=O)NC12CC3CC(CC(C3)C1)C2 | -14%
COC(=O)/C=C/C(=O)N1CCN(c2ccccc2)CC1 | -13%
CCN(CC)S(=O)(=O)c1ccc(N2CCN(c3ccccc3OC)CC2)c(N)c1 | -22%
CCC1CCCCN1CCCNC(=O)c1ccc(/C=C2/Sc3ccccc3NC2=O)cc1 (centres undefined) | 1%
COc1ccc(-c2cc(C(=O)O)c(C)o2)cc1OC | 4%
COC(=O)c1cc2cc(OC)ccc2n1C | -15%

Next section:
Molecule | VDR inh
CCN(CC(=O)Nc1c(C(=O)OC)[nH]c2ccccc12)c1ccc2c(c1)OCO2 | 5%
COC(=O)CCn1c(C)cc(C(=O)COc2ccccc2C(N)=O)c1C | -1%
O=C(Nc1ccc(Cc2ccncc2)cc1)C1CCC(N2C(=O)C3C4C=CC(C4)C3C2=O)CC1 (centres undefined) | -1%
COc1ccc(COc2ccccc2C(=O)NCc2ccccc2)cc1F | -4%
Cc1cc2c(cc1C)NC(c1ccccn1)C1=C(CC(C)(C)CC1=O)N2 (centres undefined) | 18%
Cc1ccc(NC(=O)COC(=O)c2ccc(NC(=O)CC#N)cc2)cc1S(=O)(=O)N1CCOCC1 | -3%
COC(=O)c1cnn(-c2ccccc2)c1N | -5%
Cc1ccsc1/C=N/N=C1\C(=O)Nc2ccccc21 | -1%
CN(C)c1ccc(NS(=O)(=O)c2cccc(Cl)c2)cc1 | -8%
O=C(COC(=O)c1cccc(C(=O)OCC(=O)c2ccc(Br)cc2)n1)c1ccc(Br)cc1 | 11%
O=C(c1sc2ccccc2c1Cl)N1CCN(c2ccccn2)CC1 | 7%
Cc1ccn2c(Nc3ccccc3C)c(-c3ccncc3)nc2c1 | -11%&6%
COc1cc2c(cc1OC)C(c1ccccc1)NC(C)(C)C2 (centres undefined) | -1%
CC(Oc1ccc2c3c(c(=O)oc2c1)CCC3)C(=O)NCCN1CCOCC1 (centres undefined) | -7%
COc1ccc(NS(=O)(=O)c2cccc(C(=O)N/N=C(\C)c3cccnc3)c2)cc1 | -9%
CCOC(=O)c1c(C)[nH]c(C)c1C(=O)COC(=O)c1cccnc1Cl | -3%
NC(=O)c1cc(-c2csc(-c3cccnc3)n2)ccc1O | 2%
Cc1ccc(C)c(N2CC(C(=O)Nc3nccs3)CC2=O)c1 (centres undefined) | 8%
Cc1ccc(S(=O)(=O)c2ccc(Cl)cc2)cc1S(=O)(=O)NC(C(=O)O)C(C)C (centres undefined) | -11%
CCN1C(=S)N[C@@H](c2ccccc2)C(C(=O)OC)=C1C | -5%

Copied from the list.
VDR inh result of NC(=O)c1cc(-c2csc(-c3cccnc3)n2)ccc1O = 2%
VDR inh result of Cc1ccn2c(Nc3ccccc3C)c(-c3ccncc3)nc2c1 = -11%&6%
VDR inh result of Cc1ccc(C)c(N2CC(C(=O)Nc3nccs3)CC2=O)c1 (centres undefined) = 8%
VDR inh result of CCOC(=O)c1c(C)[nH]c(C)c1C(=O)COC(=O)c1cccnc1Cl = -3%
VDR inh result of COc1cc2c(cc1OC)C(c1ccccc1)NC(C)(C)C2 (centres undefined) = -1%
VDR inh result of CCN1C(=S)N[C@@H](c2ccccc2)C(C(=O)OC)=C1C = -5%

(list continues)
Molecule | VDR inh
O=C(CN1C(=O)NC2(CCCCC2)C1=O)Nc1ccc2c(c1)CCC2 | 13%
CC(C)c1nnc(NC(=O)CN2C(=O)c3ccccc3C2=O)s1 | 5%
COc1cc(CC(=O)OCC(=O)N2CCN(C(=O)c3ccco3)CC2)cc(OC)c1OC | -6%
O=C(CN1CCN(S(=O)(=O)c2ccccc2F)CC1)N1CCc2ccccc2C1 | -16%
Cc1ccccc1NC(=O)Cn1c(=O)n(CC2CCCO2)c(=O)c2ccccc21 (centres undefined) | -10%
CCOc1ccc(NC(=O)c2ccc(CN3C(=O)C(C)=C(c4ccc(C)cc4)S3(=O)=O)cc2)cc1 | 11%
Cc1ccc(CN(CC(=O)NC(C)(C)C)C(=O)CNC(=O)c2cccs2)cc1 | -2%
CC(=O)Nc1ccc(Sc2ccccc2C(=O)N2CCCC2)cn1 | 1%
COc1ccc(C2=NOC(C)(c3nnc(-c4ccccc4)o3)C2)cc1 (centres undefined) | -6%
CC(C)CN(C(=O)Cn1c(C(F)(F)F)nc2ccccc21)c1c(N)n(Cc2ccccc2)c(=O)[nH]c1=O | -7%
COc1ccccc1OCC(=O)NNC(=O)C1CCN(c2ncnc3sc(C)c(C)c23)CC1 | -16%
CCN1C(=O)C(CC(=O)N2CCN(C(c3ccccc3)c3ccccc3)CC2)N(CC)C1=O (centres undefined) | 12%

Of the compounds above, these have a nitro group on carbon:
Molecule | VDR inh
COc1ccccc1Nc1ccc(C(=O)O)cc1[N+](=O)[O-] | -2%
CC(C)=N/N=C(\c1cccc([N+](=O)[O-])c1)C12CN3CN(CN(C3)C1)C2 | 16%
Cc1cc([N+](=O)[O-])ccc1NC(=O)c1ccc(NC(=O)C(C)C)cc1 | 9%
COc1ccc(-n2cc([N+](=O)[O-])c(=O)c3ccc(Cl)cc32)cc1 | 9%
